NPYLR7 agonist: agonists of mosquito NPYLR7 receptor, primary screen, cell-based, Aedes aegypti, calcium fluorescence, mosquito biting behavior. activation, % at 10 µM. HEK293T NPYLR7/Galpha15, GCaMP6s calcium fluorescence. Aedes aegypti neuropeptide Y-like receptor 7 (NPYLR7). AID 1259423, 2018. 0.15% of 270,000 active; in the data active = activation above about 40%;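 also: 0% = vehicle and 100% = reference agonist at the receptor; some compounds past the cut are filed as inactive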
NPYLR7 agonist max-min: further read-out of NPYLR7 agonist, marked with its call; activation, %; measured here: Max-Min RFU normalised activation; some inactives read as strong as hits;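 span of the calcium signal over five minutes; 0% = vehicle and 100% = native peptide agonist; compound fluorescence can raise it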
* = called active by the depositor; & = joins results of further samples.

#	mol	NPYLR7 agonist	NPYLR7 agonist max-min
1	Cc1ccc(CN(C)S(=O)(=O)c2c(C)noc2/C=C/N(C)C)cc1	2	0
2	CN1C(=O)N(CC(=O)Nc2nccs2)C(=O)C12CCCCC2	-4	-3
3	CCNC(=O)NC1=N[C@@]23CO[C@H](c4ccccc4)C[C@@H]2CC(=O)[C@H]3S1	1	9
4	C=C(C)COc1ccccc1NC(=O)CCC(=O)O	9	6
5	Cn1ncc([N+](=O)[O-])c1C(=O)Nc1cccc([N+](=O)[O-])c1	-3	-4
6	Cc1cc(C)n(-c2cc(Oc3ccccc3)nc(-c3ccccc3)n2)n1	1	0
7	CC(C)CN(C(=O)c1ccc(Cn2ccnc2)cc1)C1CC1	1	0
8	COCCN(CC(=O)N(CCc1c[nH]c2ccccc12)Cc1ccc(C(F)(F)F)cc1)C(=O)Nc1ccc(Br)cc1	22	26
9	Cc1ccc(CNC2CN(C(C)C)CC2C)s1 (configuration not stated)	0	-6
10	O=C(NCCO)C1CCCN(C2CCN(CCc3ccccc3)CC2)C1 (configuration not stated)	11	7
11	CCN(CC(=O)NC)S(=O)(=O)N(C)C1CCCCC1	-1	-1
12	CN(C)c1ccc(N)cc1CN(Cc1ccc(F)cc1)C(=O)Nc1cccc(F)c1	-1	7
13	O=C(c1ccc(=O)n(Cc2cccc(F)c2)n1)N1CCCc2ccccc21	-1	-2
14	O=[N+]([O-])c1cccc(CN2CCCn3cccc3C2c2cccc(Cl)c2)c1 (configuration not stated)	4	8
15	CCC(NC1CCN(c2nc(C)c3cc(C)c(C)cc3n2)CC1)c1ccncc1 (configuration not stated)	12&15	8&8
16	CC(C)C(=O)N1CCC(NC(=O)/C=C/c2cnn(C)c2)CC1	3	1
17	COc1ccc(C(=O)NCCn2ncc3c(=O)n(Cc4ccccc4C)cnc32)cc1OC	-6	-11
18	Cc1ccc(Cc2nnc(N(C)c3ccccc3)[nH]c2=O)cc1	10	4
19	Cc1ccsc1C(=O)N1CCC1(C)C(=O)NCc1ccccc1Br (configuration not stated)	0	-2
20	c1cncc(CN2CCCN(Cc3cc4n(n3)CCNC4)CC2)c1	-3	-1
21	Cc1[nH]nc(SCC(=O)N2C(C)CCCC2C)c1[N+](=O)[O-] (configuration not stated)	-4	-5
22	O=c1[nH]c(CSc2nnc(Cc3cccs3)n2C2CCCCC2)nc2ccsc12	3	8
23	O=C(OCc1ncc(-c2ccccc2)o1)c1n[nH]c2ccccc2c1=O	0	-1
24	Cc1ccc(-c2csc3nc(CSc4nnnn4C4CC4)[nH]c(=O)c23)s1	-5	-2
25	COc1cccc(Cc2nc3c(c(N4CCOCC4)n2)CN(C(=O)c2cccc(C(F)(F)F)c2)CC3)c1	20	15
26	O=C(c1cc(=O)c(OCc2ccc(F)cc2)c[nH]1)N1CCN(c2ccccc2F)CC1	2	-2
27	COC(=O)C1=C(O)/C(=C\c2ccc(C)cc2O)SC1=Nc1ccc(Cl)cc1	-6	-2
28	COc1ccccc1N1CCN(C(=O)c2cc(-c3ccc(Cl)cc3)n(-c3ccc(C)cc3)c2C)CC1	-8	-2
29	CCN(C(=O)Nc1ccccc1Br)C(C)c1nc2ccccc2c(=O)n1-c1cc(C)ccc1C (configuration not stated)	1	4
30	COc1ccc(C)cc1N1C(=O)C(c2c(C)[nH]n(-c3ccc(Cl)cc3)c2=O)=C(N2CCOCC2)C1=O	-8	-14
31	CCOC(=O)c1cnc2cc(=O)[nH]n2c1C	0	-4
32	CCOc1ccccc1C(=O)Nc1ccc(N2CCN(C(=O)Nc3cc(C)ccc3Cl)CC2)nc1	20	22
33	Cc1cc(OC(=O)c2c(F)cccc2Cl)c([N+](=O)[O-])c(=O)[nH]1	8	7
34	CCCc1cnc2c(c1SC(CC)C(=O)O)c(=O)n(C)c(=O)n2C (configuration not stated)	8	7
35	CS(=O)(=O)Nc1cccc(-c2cncc(Nc3cccc([N+](=O)[O-])c3)c2)c1	-7	-11
36	CCCCN(C)c1c(C)nc2c(OCc3ccc(Cl)cc3Cl)cccn12	-4	-8
37	CCCCN(C)C(=O)c1sc(=O)n(Cc2cccc(C(F)(F)F)c2)c1C	-8	-2
38	COc1ccc(-c2csc(C(O)c3ccc(F)c(OC)c3)n2)cn1 (configuration not stated)	6	1
39	COc1ccccc1C1=NN(C(=O)CN2CCOCC2)C(c2ccccc2Cl)C1 (configuration not stated)	12	11
40	CCCNC(=O)c1ccc(-c2cccc3cnccc23)o1	-4	-6
41	O=C1NC(=O)C2C1ON(c1ccccc1)C2c1ccccc1 (configuration not stated)	6	5
42	N#Cc1ccc(C2(O)CN(c3ccccc3)C3=[N+]2CCCS3)cc1 (configuration not stated)	8	6
43	COCC(C)C1CCN(C(=O)CC23CC4CC(CC(C4)C2)C3)CC1 (configuration not stated)	13	2
44	C[C@]12CCC(OC(=O)c3ccccc3)CC1CCc1ccccc12 (some centres not stated)	-8	-12
45	CC(C)c1nc(N2CCN(CCc3ccccc3)CC2)c2c3c(sc2n1)CCCCC3	5	10
46	COc1cccc(-c2cc(-c3ccc(C(=O)NCc4ccc(C(F)(F)F)cc4)cc3)[nH]n2)c1	3	2
47	O=C(NCCc1nc2ccccc2[nH]1)c1cn(Cc2cccc(Cl)c2)nn1	9	6
48	Cc1cc(OC(=O)c2ccc(S(=O)(=O)N3CCCC3)cc2)c([N+](=O)[O-])c(=O)[nH]1	-5	-5
49	COc1ccc(C)cc1N1C(=O)CSC1c1cccc(NC(=O)Nc2ccc(C(F)(F)F)cc2)c1 (configuration not stated)	12	17
50	Cn1c(=O)oc2cc(S(=O)(=O)N3CCn4c3nc3ccccc34)ccc21	9	10
51	O=C(c1ccc2c(c1)CCCC2)N(Cc1ccco1)Cc1cccs1	0	-8
52	CCc1ccc(CN(C)C(=O)c2cc(COc3ccc(C(C)=O)cc3)on2)cc1	2	-6
53	CCN(CC(C)C)c1c(C#N)c(=O)n(C)c(=O)n1C	11	9
54	CCOC(=O)c1csc(CN(CCCOC)C(=O)Nc2ccccc2Br)n1	5	15
55	Cc1nc(C(C)(C)C)sc1C(=O)NC1CCN(C2CCCCCC2)C1 (configuration not stated)	10	3
56	COc1cccc(C(=O)NC2(C(F)(F)F)NC(=O)N(C3CCCC3)C2=O)c1 (configuration not stated)	19	8
57	C#CCN1CCC(C(=O)Nc2[nH]ncc2C(=O)NC(C)C)CC1	16	11
58	O=C(NCc1ccccn1)C1CCN(C2CCN(Cc3cccc4nonc34)CC2)CC1	3&3	1&0
59	CCCCCCCCS(=O)(=O)Oc1ccc(-c2nc3ccc(Br)cn3c2NC2CCCCC2)cc1	-12	-6
60	CNCCCCOc1ccccc1Cc1ccccc1	-10	-15

Quoted at random: two compounds from above
#	mol	NPYLR7 agonist	NPYLR7 agonist max-min
40	CCCNC(=O)c1ccc(-c2cccc3cnccc23)o1	-4	-6
56	COc1cccc(C(=O)NC2(C(F)(F)F)NC(=O)N(C3CCCC3)C2=O)c1 (configuration not stated)	19	8

Other compounds.
#	mol	NPYLR7 agonist	NPYLR7 agonist max-min
61	CCN(CC)c1onc(-c2ccccc2)c1CN(C(=O)CC(C)C)C1CC1	3	3
62	COc1ccc2c(OCc3ccc(C(N)=O)cc3)ccnc2c1	-8	-8
63	CC1c2ccsc2CCN1S(=O)(=O)c1ccc2c(c1)OCCO2 (configuration not stated)	9	10
64	CC(C)CC(N)c1csc(Nc2cc(Oc3ccccc3)ncn2)n1 (configuration not stated)	-1	-6
65	Fc1ccccc1C1=Nc2nnnn2C(c2ccc(Br)cc2)C1 (configuration not stated)	4	1
66	COCc1cc(C)nc(N/N=C\c2cc(OC)c(OC)cc2Br)c1C#N	-3	7
67	Cc1cc(NC(=O)C2(C)CCN2C(=O)C/C=C/c2ccccc2)sn1 (configuration not stated)	13	13
68	CC(=O)Nc1ccc(OCC(O)CN(c2ccc(C)cc2)S(C)(=O)=O)cc1 (configuration not stated)	3	0
69	COc1cc(OC)nc(C(NC(=O)C2CCN(CCc3c[nH]c4ccccc34)CC2)c2ccc(Cl)cc2)n1 (configuration not stated)	15	10
70	O=C(Cc1cccc2ccccc12)N1CCN(S(=O)(=O)c2cc3c4c(c2)CCN4C(=O)CC3)CC1	-7	0
71	Cc1ccc(C)c(Cn2c(-c3ccccc3)c(CCNC(=O)[C@H](CC(C)C)NC(=O)CNC(=O)OCc3ccccc3)c3ccccc32)c1	-6	-12
72	CCOC(=O)CC(=O)CSc1nc2sc(CC)cc2c(=O)n1Cc1ccco1	-11	-6
73	CCc1cccc2c(C(CC(=O)NCc3ccc4c(c3)OCO4)c3ccc(OC)cc3OC)c[nH]c12 (configuration not stated)	3	7
74	CCN(CC)S(=O)(=O)c1ccc2oc(=S)n(CN(C(C)C)C(C)C)c2c1	1	19
75	COc1cc(NC(=O)CNC2CCCN(C(=O)c3ccco3)C2)ccc1Cl (configuration not stated)	22	8
76	COc1ccc2nc(-c3ccc(C)c(NS(=O)(=O)c4ccc(C)c(C)c4)c3)cn2n1	-13	-19
77	CCn1c2c(=O)[nH]c(=O)n(C)c2n2c(-c3c(F)cccc3Cl)nnc12	8&-13	1&-16
78	Cc1ccccc1N1CC(c2nc3ccccc3n2CCC(C)C)CC1=O (configuration not stated)	-1	0
79	CCc1nc2ccc(C(=O)Nc3ccc(C(N)=O)cc3)cn2c1N(C=O)CCC(C)C	20	17
80	CCC(C)c1ccc(NC(=O)c2c(-c3ccccc3Cl)noc2C)cc1 (configuration not stated)	-3	-4
81	Cc1cccn2c(=O)c3cc(C#N)c(=O)n(Cc4ccco4)c3nc12	5	1
82	Cc1ccc(-c2cc(C(=O)N3CCC(C(=O)c4ccccc4)CC3)c3ccccc3n2)o1	1	1
83	CCN1C(=O)C2(SC(C)(C)CN2C(=O)NC2CCCCC2)c2cc(F)ccc21 (configuration not stated)	6	5
84	Cc1ccc(Cn2c(CN3CCOCC3)nc3c2c(=O)n(C)c(=O)n3C)cc1	16	9
85	O=S(=O)(O)c1cc(I)c(O)c2ncccc12	-2	-7
86	CN1CCCc2cc(C(CNC(=O)c3ccc(Br)o3)N3CCOCC3)ccc21 (configuration not stated)	7	2
87	O=C(O)CSc1ncnc2c1oc1ccccc12	-1	0
88	COc1ccc(Nc2cc(C3(C(=O)Nc4cccc(F)c4)CC3)ccn2)cc1O	3	5
89	COc1cccc(CN(CC2CCN(C3Cc4ccccc4C3)CC2)CC2CCCO2)c1 (configuration not stated)	1	-4
90	O=C(CCN1CCC(c2cccc(O)c2)CC1)N1CCc2ccccc2C1	0	-5
91	Nc1nc(Cl)c(C=O)n1-c1ccc(Br)cc1	-3	-5
92	COc1ccc(C2=NN(C(=O)c3cccs3)C(c3ccc4nccnc4c3)C2)cc1 (configuration not stated)	-1	7
93	O=C(Cc1cccs1)N1C[C@H]2[C@H](O)[C@@H]3C[C@H](c4ccc(F)cc4)[C@@H](O3)[C@H]2C1	6	8
94	Cc1ccnc(-n2cccc2CN2CCCN(C(=O)C3CCC3)CC2)c1	-6	-16
95	Cc1cc(CN(C)c2nc3nonc3nc2N(C)C)on1	-1	-5
96	CCOC(=O)c1ccccc1NS(=O)(=O)c1ccsc1C(=O)OC	0	-3
97	CCC1CN(c2ccnc(C(=O)NCc3ccccn3)c2)CCN1 (configuration not stated)	2	1
98	CC(C)CC(=O)N1CCc2ccc(S(=O)(=O)N(C)C)cc21	-3	-4
99	CCOC(=O)c1nn(-c2ccc(F)cc2)c(=O)cc1NCCN(C)C	5	1
100	c1ccc(N2CCN(C3CCCN(Cc4cn[nH]c4C4CCCCC4)C3)CC2)cc1 (configuration not stated)	17	10
101	C[C@@H]1CN(C(=O)c2nc3ccc(Cl)cn3c2CNCc2n[nH]c3c2CCC3)C[C@H](C)O1	7&7	8&13
102	CCNC(=O)C1CCN(C(=O)c2cc(Cn3cnc4ccccc43)[nH]n2)C1 (configuration not stated)	12	-5
103	CCCc1nc(C(=O)N(C)C(C)c2ccon2)cs1 (configuration not stated)	15	11
104	CCC(=O)N(c1nnc(SCC(=O)c2cc(C)n(C3CC3)c2C)s1)C1CC1	4	2
105	Fc1ccccc1OCCCn1cnc2ccccc21	27	11
106	CCOC(=O)C1(CCc2ccccc2)CCN(C(=O)c2ccc(OC)c(F)c2)CC1	8	7
107	CCc1nn(C)c(Cl)c1CN1CC2(CCNCC2)CC1C(=O)O (configuration not stated)	-1	-7
108	Cc1cn2c3c(=O)n(Cc4ccc(Cl)cc4)c(=O)n(C)c3nc2n1C1CCCC1	7	11
109	CN(Cc1cccc(F)c1)C(=O)c1ccc(S(=O)(=O)C(F)F)cc1	-6	-7

Laid out differently: entries from further up.
18	Cc1ccc(Cc2nnc(N(C)c3ccccc3)[nH]c2=O)cc1
  NPYLR7 agonist: 10	NPYLR7 agonist max-min: 4
19	Cc1ccsc1C(=O)N1CCC1(C)C(=O)NCc1ccccc1Br (configuration not stated)
  NPYLR7 agonist: 0	NPYLR7 agonist max-min: -2
20	c1cncc(CN2CCCN(Cc3cc4n(n3)CCNC4)CC2)c1
  NPYLR7 agonist: -3	NPYLR7 agonist max-min: -1
21	Cc1[nH]nc(SCC(=O)N2C(C)CCCC2C)c1[N+](=O)[O-] (configuration not stated)
  NPYLR7 agonist: -4	NPYLR7 agonist max-min: -5

An excerpt, so the mix of outcomes need not match the whole.
